T cruzi inh: T. cruzi replication inhibition | T. cruzi beta-gal in NIH3T3, luminescence, 90 h | inhibition, % (concentration not given with the values) | 300,000 tested, 1.4% active;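 active means mean inhibition across valid replicates above about 55%, limit read from the data; inconclusive means mean below that limit but half or more replicates reach it; inactive means mean below it, under half of replicates reach it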;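 further: signal also drops with host cell toxicity which is not excluded here; 0% = plate median of DMSO wells and 100% = zero luminescence signal; higher percent means less beta-gal luminescence so fewer parasites; stock transfer was 50 nL into about 50 µL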
E coli growth: E. coli growth inhibition | Escherichia coli growth, OD600, 23 h; stronger effect = lower value | AID 1053175 | OD600 absorbance (concentration not given with the values) | 330,000 tested, 0.21% active;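 active means OD600 absorbance below the run mean of sample wells minus 3.6 SD, in any replicate, cut at about 0.56 in these data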;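 further: stock transfer was 300 nL into about 60 µL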
A1 inh: inhibitors of the anti-apoptotic protein A1, read as caspase activation. 330,000 tested, 0.066% active. MEF A1-2A-BIM cells, Caspase-Glo 3/7 luminescence, 3 h; percent of clofoctol response, vehicle zero. caspase activation, % (concentration not given with the values);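 active means over half of replicate activation scores above 10%, or exactly half above 10 with the replicate mean above 10; inconclusive means replicate mean below 10 yet half the replicates above 10; inactive means over half of replicates below 10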;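 further: wells of about 30 µL received 50 nL stock; many hits fall short of the cut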
MLL AF4-AF9 inh: blocks AF4 peptide binding to human AF9; AlphaScreen, biotin-AF4 peptide binding to FLAG-AF9; AID 651704; 350,000 tested, 0.47% active; inhibition, % at 10 µM;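 active means every replicate reaching a set inhibition limit, whatever the replicate mean, cut at about 25% in these data; inconclusive means mean inhibition reaches that limit but some replicates miss it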;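 further: 0% = plate neutral control median and 100% = total signal loss; the record names both 10 and 1 µM as test concentration; the first replicate is given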
Target sequence (P42568 whole entry, looked up): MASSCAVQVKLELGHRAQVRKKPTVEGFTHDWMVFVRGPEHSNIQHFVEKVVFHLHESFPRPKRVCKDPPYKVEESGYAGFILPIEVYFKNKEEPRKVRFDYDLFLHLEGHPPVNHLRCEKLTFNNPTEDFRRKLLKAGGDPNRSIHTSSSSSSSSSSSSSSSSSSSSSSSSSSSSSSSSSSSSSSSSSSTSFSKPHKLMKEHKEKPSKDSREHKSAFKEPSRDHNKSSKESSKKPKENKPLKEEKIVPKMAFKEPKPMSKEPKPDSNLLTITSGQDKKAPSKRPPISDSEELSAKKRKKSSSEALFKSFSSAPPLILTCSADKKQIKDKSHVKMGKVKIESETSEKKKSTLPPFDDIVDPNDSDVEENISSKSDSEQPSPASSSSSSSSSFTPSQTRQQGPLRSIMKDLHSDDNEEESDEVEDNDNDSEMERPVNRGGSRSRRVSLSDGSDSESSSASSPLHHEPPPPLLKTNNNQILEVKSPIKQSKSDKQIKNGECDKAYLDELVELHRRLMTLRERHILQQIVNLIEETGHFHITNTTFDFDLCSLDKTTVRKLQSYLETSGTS
Beta apoptosis: blocks beta cell apoptosis; INS-1E cytokine-induced death, ATP luminescence, 48 h; percent of positive-control rescue, neutral wells zero; protection from apoptosis, % (concentration not given with the values); 300,000 tested, 0.8% active;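 active means all replicates at 75% or more, or half of them and the mean; inconclusive means half reach 75% but not the mean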;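 further: 0% = cytokine-treated negative control wells and 100% = positive control rescue; higher means more ATP so stronger rescue from cytokine killing; wells of about 40 µL received 100 nL stock; the first replicate is given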
FGF22 binding: shifts melting point of recombinant human FGF22; recombinant FGF22 thermal shift, SYPRO orange fluorescence; percent of sucrose octasulfate shift, DMSO zero; 340,000 tested, 1.5% active; calls only at 9.99 µM; Q9HCT0;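 active means melting point raised past a set limit in the mean and every replicate; inconclusive means no clear call; three in four hits are not shown here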
Target sequence (Q9HCT0 whole entry, looked up): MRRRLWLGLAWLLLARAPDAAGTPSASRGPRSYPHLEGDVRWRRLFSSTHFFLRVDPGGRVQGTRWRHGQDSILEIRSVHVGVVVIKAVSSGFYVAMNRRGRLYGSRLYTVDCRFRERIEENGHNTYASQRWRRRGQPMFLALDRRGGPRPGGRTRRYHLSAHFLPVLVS
rRNA inh HTS: inhibitors of bacterial rRNA selective over humanized ribosomes; E. coli WT GFP vs humanized-ribosome RFP mutants, fluorescence, 24 h; stronger effect = lower value; DMSO median 0, no signal -100; AID 720706; GFP signal change (wild-type ribosome), % (concentration not given with the values); 350,000 tested, 1.6% active;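 active means significant combined selectivity score with lowered wild-type GFP, culture density cut under 30%, mutant RFP and density less affected; inactive means any of these conditions unmet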; further: one replicate is shown; some compounds called inactive have numbers as strong as hits
UCH37 DUB inh: inhibitors of human deubiquitinating enzyme UCH37; purified proteasome/UCH37, Ub-AMC cleavage fluorescence; inhibition, % (test concentration not listed); Q9Y5K5; 330,000 tested, 0.33% active; AID 588478;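 active means mean of two replicates above 20%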;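 further: 0% = compound-free wells with enzyme and 100% = wells lacking proteasome; stock transfer was 100 nL into about 20 µL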
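assay system = human UCH37 enzyme supplied as purified proteasome complex | amount = proteasome at 0.15 nM in the dispensed enzyme solution | schedule = 30 min compound-proteasome preincubation then 25 min substrate reaction, room temperature | measured by = fluorescence, ex 355 nm, em 460 nm | benchmarks = no-proteasome wells (full inhibition) and compound-free wells (no inhibition)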
rRNA inh HTS OD600: second read-out of rRNA inh HTS, no call of its own (marks repeat the call); OD600 change, %; measured here: OD600 growth;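 optical density of the mix in the first replicate; 0 = DMSO median and -100 = no signal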
rRNA inh HTS RFP: second read-out of rRNA inh HTS, no call of its own (marks repeat the call); RFP signal change, %; measured here: RFP humanized mutant strains;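 first replicate; 0 = DMSO median and -100 = no signal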
An asterisk follows results filed as active; i = inactive; ? = inconclusive; / = not tested or not shown; & = joins results of further samples. These rows are one share of the data, so the mix of outcomes need not match the whole.

SMILES | T cruzi inh | E coli growth | A1 inh | MLL AF4-AF9 inh | Beta apoptosis | FGF22 binding | rRNA inh HTS | rRNA inh HTS OD600 | rRNA inh HTS RFP | UCH37 DUB inh
CCOC(=O)COc1ccc(/C=C2\NC(=S)N(CC)C2=O)cc1 | -38 | 0.69 | 1.2 | -1.3 | -5 | i | -4 | 3 | -10 | 3.9
CC(=O)/C(=C/N(C)C)Sc1ccc(C)cc1 | -18 | 0.72 | 1.7 | / | -7 | / | / | / | / | 3.9
CC(=O)Nc1ccc(S(=O)(=O)Nc2nc3ccccc3nc2N2CCCCCC2)cc1 | -1 | 0.66 | 0.6 | / | -7 | / | / | / | / | 2.6
O=C(NCCc1ccccc1)c1ccc(CS(=O)(=O)c2ccc(Br)cc2)o1 | 5 | 0.65 | 0.6 | -0.8 | -3 | i | -9 | -7 | -0.4 | 0.4
CSc1nc(C2CC2)cc(-c2cccs2)c1C#N | 22 | 0.66 | -0.2 | / | 9 | / | 3 | -1 | -0.7 | -3.9
CCOC(=O)c1cnn(-c2ncnc3sc(CC)cc23)c1N | -2 | 0.8 | -0.4 | / | -2 | / | / | / | / | -5.0
COc1cccc(N2CCN(CC(=O)Nc3ccccc3C(=O)NCCc3ccccc3)CC2)c1 | / | 0.69 | -0.3 | 2.5 | 4 | i | / | / | / | 3.5
CCN(Cc1ccc2c(c1)OCCO2)C(=O)CSc1nc(C)nc2sc(C)c(C)c12 | / | 0.69 | 2.1 | -2.9 | -10 | i | / | / | / | 2.7
COc1ccc2sc(N(CCCN(C)C)C(=O)c3ccc(S(=O)(=O)N(C)C4CCCCC4)cc3)nc2c1 | 61* | 0.71 | 0.6 | ? | 6 | / | -48 | -47 | -10.0 | -0.4
CSCC[C@H](Nc1ncnc2sc(C)c(C)c12)C(=O)O | -4 | / | -0.2 | / | -8 | / | / | / | / | 0.9
CC1(C(=O)O)CCC(C(=O)Nc2ccc3ccccc3c2)C1(C)C (centres undefined) | 5 | 0.74 | 0.1 | / | -2 | / | / | / | / | 5.3
CC1(C)Cc2ccccc2C(CSc2ccccc2C(=O)O)=N1 | 20 | 0.7 | -0.3 | 11 | -3 | / | -25* | -20* | -0.6* | 1.9
CC(=O)c1ccc(NC(=O)COC(=O)/C=C/c2cccs2)cc1 | / | 0.67 | -0.2 | 0.4 | -3 | i | -3 | -3 | 1.7 | 2.3
O=C(CSc1ccc(-c2cccc([N+](=O)[O-])c2)nn1)N1CCCC1 | 38 | 0.67 | -1.9 | 0.3 | 1 | i | 8 | 3 | 0.1 | 0.6
CN1C(=O)N(CC(=O)N2CCN(S(=O)(=O)c3ccc(Cl)s3)CC2)C(=O)C12CCCCC2 | / | 0.69 | -0.2 | 2.6 | -5 | i | 2 | -8 | -8.7 | 0.6
O=C(NC(=S)Nc1ccccc1N1CCCC1)c1cccc(F)c1 | 11 | 0.68 | -0.2 | ? | 4 | i | -10 | -4 | 4.6 | 19
CC(C(=O)NCC1CCCCC1)N1CCN(S(=O)(=O)/C=C/c2ccccc2)CC1 (centres undefined) | 14 | 0.65 | 0.4 | / | -1 | / | / | / | / | 2.1
O=C(c1ccc(Cl)cc1)c1cnc(-c2ccc(Cl)cc2)s1 | -10 | 0.69 | -0.1 | / | -1 | / | / | / | / | 1.1
CN(C(=O)CSc1nnc(-c2ccco2)n1C)C1CCCCC1 | / | 0.67 | / | 1.0 | / | i | 4 | 3 | 0.9 | 0.8
CCCNC(=O)Cc1cc(=O)[nH]c(=O)[nH]1 | 2 | 0.7 | 0.2 | 5.9 | 2 | i | 1 | 5 | -1.3 | 3.1
Cc1cccc(C)c1NC(=O)C1CC(=O)N(C(C)C)C1 (centres undefined) | 2 | 0.72 | 0.3 | / | -2 | / | / | / | / | 2.6
Clc1ncc(CN2CCN(Cc3ccccc3)CC2)s1 | 34 | 0.73 | 0.3 | / | -6 | / | / | / | / | -0.3
CN(c1ccc(OCC(=O)OCC(=O)Nc2ccc(Br)cc2)cc1)S(=O)(=O)c1cccs1 | 0 | 0.71 | 2.0 | 3.5 | 0 | i | 1 | 4 | 5.5 | 1.6
Brc1cccc(OCCN2CCOCC2)c1 | -10 | 0.67 | -2.6 | -4.8 | -8 | i | 6 | 7 | -0.1 | 2.4
Cc1ccc(C(=O)Nc2cc(C(F)(F)F)ccc2-n2cncn2)o1 | / | 0.7 | -0.7 | -21 | 7 | i | -1 | 5 | -3.9 | -1.6
O=C(Cn1cc(C(F)(F)F)ccc1=O)N/N=C/c1ccccc1O | 2 | / | -0.2 | 1.0 | 17 | i | 1 | 6 | 5.4 | /
Cc1nc(Cl)c(Cl)n1CCOc1ccccc1 | 6 | 0.7 | 0.4 | 3.4 | -1 | i | -29 | -29 | -1.8 | 1.4
C#CCNC(=O)C1=C[C@@H](c2coc3ccccc3c2=O)C[C@@H](OCCCCO)O1 | -13 | / | 0.8 | -1.4&-0.8 | -6 | i | 6 | 14 | 0.0 | 1.6
NC(=O)c1cnn2c1NC(c1ccc(F)cc1)CC2C(F)(F)F (centres undefined) | -6 | 0.72 | 0.0 | / | -2 | / | / | / | / | 0.2
COC(=O)c1[nH]c2cccc(OC)c2c1NC(=O)CN1CCN(c2cccc(OC)c2)C(C)C1 (centres undefined) | 30 | 0.75 | -0.1 | / | 0 | / | / | / | / | -12
COc1cccc(CNC(=O)CCS(=O)(=O)c2ccc3c(c2)NC(=O)C(C)S3)c1 (centres undefined) | 6 | 0.68 | -0.7 | 0.8 | 3 | i | 0 | 2 | 0.3 | 2.0
Fc1ccccc1-c1nnc2ccc3ccccc3n12 | -2 | 0.7 | 0.3 | -11 | -1 | i | 6 | -1 | -0.2 | 4.0
CCOC(=O)C1CCN(C2=C(NS(=O)(=O)c3ccc(Cl)cc3)C(=O)c3ccccc3C2=O)CC1 | -3 | 0.73 | -0.5 | 30* | 7 | / | -14 | -13 | 4.9 | 9.1
CCN(CC)Cc1nc2sc(C)c(C)c2c(=O)[nH]1 | -18 | 0.68 | 0.0 | -1.3 | -6 | i | 10 | 16 | -0.9 | -0.2
COc1ccc(/C=C/C(=O)OCn2c(SC)nnc(C)c2=O)cc1OC | -4 | 0.67 | 0.6 | 0.3 | -4 | i | -4 | 7 | -7.8 | -10
CCOC(=O)C1CCCN(C(=O)c2ccc(OC)c([N+](=O)[O-])c2)C1 (centres undefined) | 7 | 0.76 | 0.4 | / | / | / | / | / | / | 2.4
CCn1cc(C(=O)OCC(=O)c2cc(C)n(-c3cccc(C(F)(F)F)c3)c2C)c(=O)c2ccc(C)nc21 | 2 | 0.72 | 0.6 | / | 3 | / | / | / | / | 3.3
C/C(=N\Nc1ccc([N+](=O)[O-])cc1)c1ccc(N2CCOCC2)cc1 | 0 | / | -0.3 | / | 7 | i | 9 | 8 | -3.0 | /
CC(=O)Nc1c(-c2cc(=O)oc3cc(C)ccc23)oc2ccccc12 | 4 | 0.68 | / | -1.9 | / | i | 0 | 3 | -1.1 | -15
COc1cc(/C=C2\C(=N)N3N=C(S(C)(=O)=O)SC3=NC2=O)ccc1OC(=O)c1cccs1 | -8 | 0.69 | -0.4 | 4.3 | 1 | / | -20 | 5 | -0.7 | -15
CCCc1nnc(SCC(=O)N2CCCCC2C)n1CCOC (centres undefined) | -3 | 0.64 | 1.5 | -4.4 | -4 | i | 4 | 6 | 4.4 | 1.2
CC(=O)Nc1c(N)c2ccccc2oc1=O | 8 | 0.7 | -1.1 | -0.4 | -3 | i | 30 | 20 | 3.2 | -0.4
Cc1ccc2oc(=O)c3cnn(CC(=O)N(CCC(C)C)Cc4ccco4)c3c2c1 | 11 | 0.8 | 0.1 | -2.6 | 7 | i | 1 | -2 | 8.3 | -0.4
CC1CCC2(CC1)NC(=O)N(CC(=O)Nc1ccc3[nH]c(=O)[nH]c3c1)C2=O (centres undefined) | -11 | 0.73 | -0.4 | 0.0 | -5 | i | 5 | 14 | -2.5 | 1.1
O=C(Cc1csc(N2CCOCC2)n1)N/N=C/c1cccc(O)c1 | 11 | / | -0.6 | -4.3 | 2 | i | 14 | 12 | -6.3 | /
O=C(NCc1cc([N+](=O)[O-])ccc1O)c1cccnc1Sc1ccccc1 | -27 | 0.72 | 0.3 | -0.7 | 9 | i | -10 | -26 | -1.8 | 8.6
O=C1CCCN1CCCNS(=O)(=O)c1ccccc1 | -1 | 0.73 | -0.1 | -0.7 | -1 | i | 4 | 7 | -3.0 | 5.5
COc1ccc2c(c1)c(N=O)c(O)n2C | -9 | 0.74 | -0.6 | / | 4 | / | / | / | / | 4.4
CCC(OC(=O)CN1C(=O)c2ccccc2C1=O)C(=O)NC1CCCC1 (centres undefined) | -4 | / | 0.7 | -1.6 | -7 | i | 3 | 0 | -0.7 | /
O=C(NCCS(=O)(=O)N1CCN(c2ccccc2F)CC1)c1ccc(Br)cc1 | -8 | 0.69 | -1.1 | 3.1 | 1 | i | 4 | 13 | -0.6 | 4.6
O=C(COC(=O)c1ccc2c(c1)C(=O)N(Cc1ccco1)C2=O)NCC(F)(F)F | -3 | 0.65 | 0.3 | -0.5 | 3 | i | 3 | 4 | -2.0 | 3.6
CC1(C)Cc2c(sc3ncn4nc(-c5ccco5)nc4c23)CO1 | -5 | 0.72 | 0.0 | / | 1 | / | / | / | / | 0.1
CC(C)(C)NC(=O)NC12CC3CC(CC(C3)C1)C2 | -11 | 0.66 | 0.2 | -0.5 | -6 | i | 10 | 11 | 1.9 | 2.0
CCCCCc1c(C)[nH]c2nc3ccccc3n2c1=O | -12 | 0.68 | 1.5 | -2.1 | 4 | i | 2 | 8 | -0.2 | -24
COCCN(C(=O)c1snc(C(N)=O)c1N)C(C(=O)NC1CCCCC1)c1ccc(F)cc1 (centres undefined) | 9 | 0.69 | 0.6 | 2.6 | -5 | i | -3 | 6 | -4.1 | -56
Cc1csc2c(=O)n(CCO)c(=O)[nH]c12 | -22 | 0.68 | -0.5 | -6.3 | -1 | i | 16 | 2 | 1.3 | 6.1
Cc1nn(-c2ccccc2)c(C)c1NC(=O)COC(=O)c1cc(Cl)ccc1O | -7 | / | 0.1 | 6.0 | -4 | i | 12 | 15 | -1.1 | /
